Screens (PubChem)
Ab BasE inh = BasE siderophore biosynthesis inhibition; 84,000 tested, 0.1% active; inhibition, % (concentration not given with the values); purified BasE, fluorescence polarization binding displacement;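 active = both replicates above 25% with normal brightness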;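 note: 0% = negative plate control signal and 100% = positive plate control signal; stock transfer was 100 nL into about 30 µL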
KSHV LANA nucl = inhibitors of KSHV LANA binding to nucleosomes; FITC-LANA1-23 / chicken nucleosome fluorescence polarization; stronger effect = lower value; z-score (concentration not given with the values); 51,000 tested, 0.3% active;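 active = both repeat wells score below -2 in polarization z-score versus plate sample wells, excluding overly bright wells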;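 note: 100 nL library stock added to about 30 µL; numbers are from one replicate; some results filed as inactive read as strong as hits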
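Assay system: FITC-LANA peptide and chicken nucleosomes; input: 240 nM purified chicken nucleosomes (480 nM peptide binding sites), final; also added: 50 nM FITC-LANA1-23 probe; medium: TEN-BT buffer, pH 7.5; doses: pin-transferred compound, 100 nL; times: 10–45 min, room temperature; technique: fluorescence polarization; replication: duplicates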
Starred values were filed as active, the others as inactive; . = not tested or not shown; & = joins results of further samples. Not all compounds are listed; the hit share may differ from the screen's.

SMILES	Ab BasE inh	KSHV LANA nucl
O=C(NCc1csc(-c2cccs2)n1)Nc1ccc2c(c1)OCCCO2	3.4	-0.449
CC(=O)NCc1ccc(S(=O)(=O)N(C)C)cc1	0.3	-0.0335
CCN1CCN(CCNC(=O)c2cc(-c3ccccn3)nc3ccccc23)CC1	-1.6	-1.01
Cc1ccc(NC(=O)O/N=C/c2c(C)nn(C(C)(C)C)c2C)cc1Cl	0.1	0.247
Cc1cc(Oc2ccc(C(F)(F)F)cc2-n2cccc2)cc(C)c1Cl	-1.0	.
O=c1[nH]nc(Sc2ncnc3sccc23)n1CCc1ccccc1	2.7	.
CC(=O)N(C1=C(O)c2ccccc2C(=O)C1=O)c1ccccc1	2.4	-0.55
O=C(CN1C(=O)c2ccccc2S1(=O)=O)NC1CCCC1	-0.3	-0.591
Cc1cc(-c2ccccc2)nc2c1/C(=N\O)CC(C)(C)C2	-1.7	.
COc1ccc(-c2onc(C(F)(F)F)c2-c2cnn(-c3ccccc3)c2)c(O)c1	-0.1	.
COc1ccc(N2CCN(C(=O)CNC(=O)c3ccccc3)CC2)cc1	2.8	0.456
COCCn1c(C)cc(C(=O)CSc2nnc(Nc3ccccc3C)s2)c1C	0.6	.
COC(=O)c1ccc(CSCC(=O)Nc2ccc(C)c(C)c2)o1	1.9	.
N#Cc1c(-c2ccco2)cc(C2CC2)nc1SCC(=O)c1ccc(Br)cc1	1.3	-0.786
O=C(Nc1ccccc1)C1CC2CCC1C2 (configuration not stated)	-1.8	0.933
CCCNC(=O)Cn1ncc2c([nH]c3ccccc32)c1=O	0.1	-0.168
COc1ccccc1Oc1ccccc1C(=O)N1CCCCCC1	0.6	-0.122
COc1ccc(S(=O)(=O)N(CC(=O)Nc2ccc3c(c2)OCO3)c2ccccc2)cc1	0.0	-0.0515
Cc1ccc(NCc2ccc3c(c2)OCO3)cc1	1.7	-0.665
COc1ccc(-n2c(N)cc(=O)[nH]c2=O)cc1	0.1	.
Cc1[nH]c2ccc(C(=O)Nc3ccccc3F)cc2c1C	-2.7	0.234
O=C1CCN(C(=O)c2ccc(Cl)cc2)c2ccccc21	-2.2	0.607
Cc1nnc(Sc2cc(C(=O)NCCN3CCOCC3)c3ccccc3n2)s1	0.2	0.381
CCN(CCO)C(=O)CC(c1ccccc1)c1cc(Br)ccc1O (configuration not stated)	3.4	0.157
CCN(CC)c1ccc(NC(=O)c2ccc(Cl)cc2)c(N(CC)CC)n1	1.0	.

Some of the entries so far, as a markdown table.
| SMILES | Ab BasE inh | KSHV LANA nucl |
| --- | --- | --- |
| COc1ccccc1Oc1ccccc1C(=O)N1CCCCCC1 | 0.6 | -0.122 |
| COc1ccc(S(=O)(=O)N(CC(=O)Nc2ccc3c(c2)OCO3)c2ccccc2)cc1 | 0.0 | -0.0515 |
| Cc1ccc(NCc2ccc3c(c2)OCO3)cc1 | 1.7 | -0.665 |
| COc1ccc(-n2c(N)cc(=O)[nH]c2=O)cc1 | 0.1 | . |
| Cc1[nH]c2ccc(C(=O)Nc3ccccc3F)cc2c1C | -2.7 | 0.234 |
| O=C1CCN(C(=O)c2ccc(Cl)cc2)c2ccccc21 | -2.2 | 0.607 |

The main list resumes, starting 4 compounds before the break.
SMILES	Ab BasE inh	KSHV LANA nucl
O=C1CCN(C(=O)c2ccc(Cl)cc2)c2ccccc21	-2.2	0.607
Cc1nnc(Sc2cc(C(=O)NCCN3CCOCC3)c3ccccc3n2)s1	0.2	0.381
CCN(CCO)C(=O)CC(c1ccccc1)c1cc(Br)ccc1O (configuration not stated)	3.4	0.157
CCN(CC)c1ccc(NC(=O)c2ccc(Cl)cc2)c(N(CC)CC)n1	1.0	.
COc1ccc(C2=NOC(C(=O)NCc3ccco3)C2)cc1 (configuration not stated)	-0.7	-0.882
CCc1ccc2[nH]c(C)c(CN(C)C)c(=O)c2c1	-3.5	1.52
CCOC(=O)/C(C#N)=C/c1cn(CCC#N)nc1C	1.3	.
N/C(=N\OC(=O)c1cnc2n(c1=O)CCS2)c1ccc(C(F)(F)F)cc1	0.8	0.0525
CCOC(=O)c1cc2occc2n1CC	-8.5	-0.0045
CCN(CC)C(=O)c1cnn(-c2ccccc2)c1-n1cccc1	-4.5	1.25
CC(O)CNc1nc2ccccc2n1-c1ncnc2sc3c(c12)CCC3 (configuration not stated)	3.5	.
COC(Cn1c(-c2ccc(C)cc2)n[nH]c1=S)OC	0.0	-1.59
O=C(CNc1ccc(Cl)cc1F)N1CCc2ccccc21	1.4	.
COc1ccc(S(=O)(=O)N2CCN(c3ccc(F)cc3)CC2)cc1C(=O)N1CCOCC1	0.9	0.232
Clc1ccc(-c2csc(=Nc3cccnc3)n2C2CC2)cc1	3.1	.
CSc1nc(N)cc(=O)[nH]1	1.6	.
O=C1CSC(=Nc2ccc(Cl)cc2)N1	-3.9	0.363
O=C(COC(=O)c1cccc(S(=O)(=O)N2CCCC2)c1)Nc1ccc2c(c1)OCCO2	-0.3	.
Cc1ccc(-c2nnc(-n3cnc4cc(C)c(C)cc43)c3ccccc23)cc1	3.8	.
C=CCOc1ccccc1N	1.5	0.405
c1ccc(-c2nn3c(CN4CCOCC4)nnc3c3ccccc23)cc1	1.6	-1.52
C/C(=N\NC(=S)Nc1cccc(C)c1C)c1ccc(S(=O)(=O)NCc2ccco2)cc1	3.5	.
CC1(C)CC(=O)C/C(=N\NC(=S)Nc2ccc(S(=O)(=O)N3CCOCC3)cc2)C1	-49.1	.
CC1CCCCN1S(=O)(=O)c1ccc(I)cc1 (configuration not stated)	-0.2	0.604
COc1ccc(CC(=O)N2N=C(C(F)(F)F)CC2(O)C(C)(C)C)cc1 (configuration not stated)	-0.9	.
C=CCSc1nnnn1-c1ccc(OC)cc1	-1.9	0.122
O=C(Nc1nc(-c2cccs2)cs1)c1cc(Cl)sc1Cl	0.8	0.151
CCCn1c(O)c(N=NC(=S)Nc2cccc(OC)c2)c2ccccc21	1.2	-0.154
O=C(Nc1ccno1)NN1CCOCC1	2.5	.

Next results follow.
SMILES	Ab BasE inh	KSHV LANA nucl
O=C1NC(=S)N/C1=C/C=C/c1ccccc1	-1.6	-0.053
NS(=O)(=O)c1ccc(CNC(=O)/C=C/c2ccc3c(c2)OCO3)cc1	-0.9	.
CC(C)CCNc1cc(C(C)C)c(C#N)c2nc3ccccc3n12	-2.9	.
O=C(/C=C(\O)c1ccccc1)C(=O)NCc1ccccc1	2.4	-0.413
Cc1cc(C(=O)COC(=O)C(C)N=C2NS(=O)(=O)c3ccccc32)c(C)n1C1CC1 (configuration not stated)	-0.3	.
CC(=O)N1c2ccc(S(=O)(=O)N3CCCC3C(=O)N3CCn4c3nc3ccccc34)cc2CC1C (configuration not stated)	1.5	-1.22
O=C(NCC1CCCO1)c1ccc(Br)cc1 (configuration not stated)	0.3	-0.156
Cc1ccc(C)c2[nH]c(=O)c(CCNC(=O)c3ccc(S(=O)(=O)N(C)C)cc3)cc12	-0.3	0.32
CCN(CC)CCN1C(=O)C(=O)/C(=C(/O)c2ccc3c(c2)CC(C)O3)C1c1ccc(F)cc1 (configuration not stated)	1.5	-0.972
CCn1c2ccccc2c2cc(CN3CCN(c4ccccn4)CC3)ccc21	3.9	0.286
Cc1ccc(C2Nc3ccccc3NC3=C2C(=O)CC(C)(C)C3)o1 (configuration not stated)	3.8	-0.561
C[C@@H](C(=O)NC1=NCCS1)N1C(=O)C2CC=CCC2C1=O (some centres not stated)	1.1	.
Cn1c(=O)c2c(ncn2Cc2ccccc2)n(C)c1=O	1.0	.
O=C(CSc1n[nH]c(=O)n1C1CC1)c1ccc(N2CCOCC2)cc1	2.2	.
CN(C(=O)c1ccc2c(=O)n3c(nc2c1)CCCCC3)c1cccc(Cl)c1	-1.8	-1.06
COc1ccc(-c2noc(-c3cc4ccccc4o/c3=N\NS(=O)(=O)c3ccc(C)cc3)n2)cc1	-0.2	-0.698
CC(C)N(C(=O)COc1ccc2ccccc2c1)C(C)C	0.4	-0.145
O=C(Cc1n[nH]c(=O)c2ccccc12)N1CCCSc2ccccc21	0.9	.
O=C(O)CCC(=O)N1CCN(c2ccc(Nc3ccccc3)nn2)CC1	-0.3	0.42
CC(=O)Nc1ccc2[nH]c(C)cc(=O)c2c1	1.7	0.0095
CC(=O)OCC(CCn1cnc2cnc(N)nc21)COC(C)=O	1.1	0.406&0.097&0.028&-0.564
OC1CCCN(CC(O)COc2c(Cl)cccc2Cl)C1 (configuration not stated)	1.2	.
Cc1ccc2[nH]c(C)c(CCC(=O)O)c(=O)c2c1	0.9	2.54
Cc1cc(C)c(OCC(=O)O)c(Cl)c1	1.5	0.683
c1coc(C2Nc3ccccc3-c3nc4ccccc4n32)c1 (configuration not stated)	-0.1	.

Next records follow:
SMILES	Ab BasE inh	KSHV LANA nucl
O=C1CCC(=O)N1CN(C(=O)C(F)(F)F)c1ccccc1	1.5	.
CC(c1nnc(SCc2nnc(-c3ccco3)o2)n1-c1ccc(F)cc1)N1CCCCC1 (configuration not stated)	-0.7	.
CCN(CC)C(=O)c1sc2nc(-c3ccncc3)[nH]c(=O)c2c1C	0.0	.
CNC(=S)N1c2ccccc2CC1C (configuration not stated)	2.1	.
O=C(CSc1ncnc2sccc12)Nc1ccccc1	0.2	.
COc1cc(/C=C2/N=C(c3ccco3)OC2=O)ccc1OC(C)=O	2.0	-2.23
CC(C(=O)N1CCc2ccccc2C1)n1ncc2ccccc21 (configuration not stated)	-1.7	0.126
COC(CNC(=O)C1CCC(CNS(=O)(=O)c2ccc(C)cc2)CC1)OC (configuration not stated)	0.3	0.0665
O=C(Cc1cccs1)Nc1scc(-c2ccccc2)c1C(=O)NCc1ccco1	0.6	-1.91
O=C(NCc1ccco1)C1CCCN1S(=O)(=O)c1ccc(-c2ccc(=O)[nH]n2)s1 (configuration not stated)	-0.3	.
Cn1nnc2sc(-c3ccccc3)cc2c1=O	-1.5	0.52
O=C(Cn1ncc2c(Cl)cccc21)NCCCN1CCCC1	0.2	0.644
CN(C)S(=O)(=O)c1cccc(COC(=O)C2=NN(c3ccccc3)C(=O)CC2)c1	-1.1	.
CC(Sc1nc2ncccc2o1)C(=O)N(C)c1ccc(F)cc1 (configuration not stated)	2.4	0.955
CCCn1c(NC(=O)c2ccc(OCc3c(C)noc3C)cc2)nc2ccccc21	-0.4	.
OC(CN1CCCN(c2nc(-c3ccccc3)ns2)CC1)C(F)(F)F (configuration not stated)	.	-1.84
O=C1c2cccc3c(S(=O)(=O)N4CCOCC4)ccc(c23)N1C(=O)C1CCCCC1	1.4	-0.157
CCN1CCc2nc(NC(=O)CCc3ccccc3)sc2C1	-1.8	.
CC1CCC(NC(=O)N(CCCl)N=O)CC1 (configuration not stated)	1.7	0.104&-0.887
CC(C)=NOC(=O)c1scc(S(C)(=O)=O)c1Cl	0.8	1.31
CC(=O)OC(C)(C)C1Cc2cc3ccc(=O)oc3cc2O1 (configuration not stated)	1.4	0.778
CCOc1cccc(C(=O)Nc2ccccc2C(=O)OC)c1	-2.5	1.77
Cc1ccc(CNS(=O)(=O)c2ccc(C(C)(C)C)cc2)n1C	1.8	-0.109
CC1CCC2(CC1)C(=O)N(S(=O)(=O)c1cccc(C(F)(F)F)c1)C(=O)N2C (configuration not stated)	0.6	.
COc1ccc(/C=N/NC(=O)c2cc3c(=O)n(C)c(=O)n(C)c3nc2C)cc1	0.5	-0.254

Four consecutive compounds already listed:
SMILES	Ab BasE inh	KSHV LANA nucl
CCOc1cccc(C(=O)Nc2ccccc2C(=O)OC)c1	-2.5	1.77
Cc1ccc(CNS(=O)(=O)c2ccc(C(C)(C)C)cc2)n1C	1.8	-0.109
CC1CCC2(CC1)C(=O)N(S(=O)(=O)c1cccc(C(F)(F)F)c1)C(=O)N2C (configuration not stated)	0.6	.
COc1ccc(/C=N/NC(=O)c2cc3c(=O)n(C)c(=O)n(C)c3nc2C)cc1	0.5	-0.254

The results go on:
SMILES	Ab BasE inh	KSHV LANA nucl
CN(C)Cc1ccc(O)c(CN(C)C)n1	2.8	.
O=S(=O)(CCN(Cc1cccs1)C(=S)Nc1cccc(F)c1)c1ccc(Cl)cc1	-0.5	.
CSc1nsc(SCC(=O)NC(C)CCc2ccccc2)n1 (configuration not stated)	1.9	-1.3
N#C/C(=C\C=C\c1ccccc1)C(N)=S	-4.7	0.279
COC(=O)Cc1cc(=O)n(-c2ccccc2)[nH]1	1.3&5.1	-0.116
CCOC(=O)c1oc2ccccc2c1COC(=O)C1CSC2(C)CCC(=O)N12 (configuration not stated)	0.3	.
Oc1cc2c(cc1C(c1ccc(C(F)(F)F)cc1)N1CCCC1)OCO2 (configuration not stated)	.	-0.785
N#CC(C#N)=NNc1ccc2c(c1)OCO2	0.6	.
CC(C)(C)C(=O)COC(=O)C1CCN(S(=O)(=O)c2cccs2)CC1	0.9	.
O=C1NC(=S)N/C1=C\c1ccco1	1.4	.
CCOc1cc2c(cc1C(=O)O)OC(C)C2 (configuration not stated)	1.9	.
O=C(CCn1c(=O)c2ccccc2n(CC(=O)NCCC2=CCCCC2)c1=O)NCc1ccc2c(c1)OCO2	0.4	0.532
CC1(C)CC(=O)C2=C(C1)NC(=O)C(C#N)C2c1ccccc1 (configuration not stated)	5.7	-0.205
CCc1nn(CC(=O)N2CC(C)CC(C)C2)c(=O)c2cc3sccc3n12 (configuration not stated)	0.5	-0.448
NC(N)=NN=C1CCCCC1	-4.1	1.2
O=c1[nH]nc2n1CCCC2	0.7	-0.592
CCc1ccc2[nH]c(=O)c(C(c3nnnn3C3CCCC3)N(Cc3ccccc3)Cc3ccco3)cc2c1 (configuration not stated)	1.0	-0.566
c1ccc(CNC2=NCCCS2)cc1	-0.3	.
COC(=O)c1cc2c(cc1Cl)N1CCCCCC1=NS2(=O)=O	1.4	.
CCCCCn1nc(C(=O)O)c2ccccc2c1=O	-0.1	.
CC(=O)Nc1ccc(NC(=O)CN(CCc2ccccc2)S(C)(=O)=O)cc1	-1.5	0.543
c1ccc2c(c1)oc1c(NCc3ccc4c(c3)OCO4)ncnc12	-3.4	.
COc1ccccc1NC(=O)c1ccc(-n2cccn2)nc1	.	0.44
